Bioassay records deposited in PubChem by several laboratories.
HSV augment = increases HSV replication in cells | HSV replication augmentation in cells, fold increase | maximum fold increase | 0.005% of 220,000 active | AID 1956;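 active = peak rise of 1.5-fold or more in the series; tested in PC3 cells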;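 also: first round at 10 µM; read as green reporter fluorescence; hits show the peak of a series up to 25 µM; 1 = signal of infected wells without compound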
Insulin prom inh = TRM-6 insulin promoter activity inhibition | 0.9% of 130,000 active | TRM-6 cells (human fetal islet line), insulin promoter-eGFP reporter, imaging; reporter expression induced with tamoxifen | AID 1273 | inhibition, % at 2 µM;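 active = inhibition above the mean plus 3 SD, with well images judged a real hit on visual review, cut at about 60% in these data, passing the limit was not always enough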
PKD1 kinase inh = PKD1 (human) kinase inhibition; Q15139; PKD1 kinase fluorescence polarization assay; inhibition, %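 (about 10 µM by stock and volumes)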; 0.056% of 200,000 active; AID 797;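 active = inhibition of 50% or more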;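 also: controls were vehicle for no effect and a reference inhibitor for full effect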
Target sequence (Q15139 whole entry, looked up): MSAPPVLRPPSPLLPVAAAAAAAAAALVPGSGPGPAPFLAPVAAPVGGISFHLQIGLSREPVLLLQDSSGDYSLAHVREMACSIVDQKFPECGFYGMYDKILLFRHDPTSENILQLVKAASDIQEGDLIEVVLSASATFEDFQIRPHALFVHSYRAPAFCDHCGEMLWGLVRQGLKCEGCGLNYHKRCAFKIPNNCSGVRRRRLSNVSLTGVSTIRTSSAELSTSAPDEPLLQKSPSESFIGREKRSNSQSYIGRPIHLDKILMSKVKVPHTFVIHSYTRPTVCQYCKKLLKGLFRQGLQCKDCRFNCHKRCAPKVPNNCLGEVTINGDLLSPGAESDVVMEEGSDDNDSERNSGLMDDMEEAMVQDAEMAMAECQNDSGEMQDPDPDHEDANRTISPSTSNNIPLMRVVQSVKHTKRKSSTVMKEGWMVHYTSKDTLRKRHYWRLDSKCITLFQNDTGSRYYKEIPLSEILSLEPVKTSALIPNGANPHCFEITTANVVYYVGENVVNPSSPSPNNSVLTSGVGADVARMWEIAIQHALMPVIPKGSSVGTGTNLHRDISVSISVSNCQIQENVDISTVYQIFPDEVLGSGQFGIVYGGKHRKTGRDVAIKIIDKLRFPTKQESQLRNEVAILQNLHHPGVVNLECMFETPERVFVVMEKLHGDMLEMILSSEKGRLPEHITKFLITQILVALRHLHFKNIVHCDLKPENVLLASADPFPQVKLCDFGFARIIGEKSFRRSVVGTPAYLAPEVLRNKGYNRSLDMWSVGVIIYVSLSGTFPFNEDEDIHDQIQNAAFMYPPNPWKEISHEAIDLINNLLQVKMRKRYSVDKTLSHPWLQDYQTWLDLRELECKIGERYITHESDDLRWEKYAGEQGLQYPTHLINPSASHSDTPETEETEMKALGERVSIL
RGS16-Gao HTS = regulators of human RGS16-Galphao interaction; binding response (% of control), % at 10 µM; bead-based flow cytometry RGS16-Galphao binding, fluorescence; actives lie on both sides; 0.38% of 220,000 active; AID 1441;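 active = below 25% or above 175%, edge rows of some plates excepted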;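 also: Galphao activated by GDP with aluminum fluoride before binding; 100% = wells without compound and 0% = beads without RGS; some results beyond the cut were filed as inactive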
GALR2 ag = agonists of human galanin receptor 2 (GALR2); GALR2-expressing cells, agonist activation read-out; activation, %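 (tested at 5 µM)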; 0.48% of 140,000 active;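 active = above mean plus 3 SD of all compounds, about 5% in these data, not always enough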;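 also: 0% = vehicle buffer wells and 100% = reference agonist at full effect; tested in CHO reporter cells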
Insulin prom inh cell count = recorded beside Insulin prom inh, whose call it bears; normalized cell count, %; measured here: cell count, toxicity; reference of the scale not given here;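 cells exposed to compound for 48 h; stained nuclei by imaging scaled within each plate; lower means fewer cells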
HSV augment primary fold = further read-out of HSV augment, marked with its call; fold increase; compound at 10 µM; measured here: primary screen fold increase 10 uM; tested in PC3 cells;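 GFP signal in the first replicate; 1 = infected wells without compound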
* = called active by the depositor; i = inactive; / = not tested or not shown.

SMILES | HSV augment | HSV augment primary fold | Insulin prom inh | Insulin prom inh cell count | PKD1 kinase inh | RGS16-Gao HTS | GALR2 ag
NS(=O)(=O)c1ccc(NC(=O)CSc2nc3ccccc3n2-c2ccccc2)cc1 | i | 0.77 | / | / | 12 | 100 | 0.2
O=C1CC(N2CCCCCC2)C(=O)N1c1ccc2c(c1)OCO2 (stereo unspecified) | i | 0.93 | -7 | 94 | -2 | 101 | -1.4
CCOc1cc(C(=O)N2CCCC2)cc(OCC)c1OCC | i | 0.97 | -412 | 42 | -3 | 88 | -3.1
CCCCCCCCCC[n+]1cccc(C(=O)N(CC)CC)c1 | i | 1.1 | -81 | 61 | -9 | 113 | 0.1
CC(C)c1nc(Cl)c(C#N)c2c1CSC(C)(C)C2 | i | 0.94 | 0 | 108 | -7 | 100 | -0.3
CC(NCc1ccc2c(c1)OCO2)C(=O)N1CCc2ccccc21 (stereo unspecified) | i | 1 | 3 | 135 | 1 | 99 | -0.7
O=C(Nc1ccc(N2CCCC2)c(S(=O)(=O)Nc2cccc(C(F)(F)F)c2)c1)c1cccs1 | i | 0.9 | -15 | 126 | -7 | 111 | 0.0
O=C(CSCc1ccccc1Br)NC1CC1 | i | 1 | 18 | 90 | 2 | 60 | -0.3
Cc1ccc(N2C(=O)[C@@H]3C(C(=O)CN4C(=O)c5ccccc5C4=O)=NN[C@@H]3C2=O)c(C)c1 | i | 0.84 | / | / | / | 101 | /
Brc1ccccc1-n1nnc(-c2cccnc2)n1 | i | 0.85 | / | / | -4 | 94 | /
Cc1ccc(C)c(NC(=O)c2ccc[n+](Cc3ccc([N+](=O)[O-])cc3)c2)c1 | i | 0.94 | -233 | 79 | -11 | 103 | -0.8
N/C(Cc1ccc(Cl)cc1Cl)=N\OC(=O)Cc1cccs1 | i | 0.98 | -57 | 120 | 0 | 112 | 0.4
CC(c1ccccc1)C1NC(C(=O)O)CS1 (stereo unspecified) | i | 0.84 | -3 | 103 | 10 | 100 | -1.1
COC(=O)c1ccccc1NC(=O)CSc1[nH]c(=O)cc(C)c1C#N | i | 0.9 | / | / | 1 | 102 | /
Cn1c(=O)c2c(nc(N3CCOCC3)n2C/C=C/c2ccccc2)n(C)c1=O | i | 1.1 | / | / | / | 93 | /
Brc1ccc(OCCCCCN2CCOCC2)cc1 | i | 1 | 0 | 124 | 5 | 101 | /
CCOC(=O)C(C)Oc1cccc2c(=O)n(CC(=O)NCCc3ccc(OC)c(OC)c3)ccc12 (stereo unspecified) | i | 1 | -41 | 122 | 7 | 97 | 1.1
c1ccc(CN2CCN(CCOCCOc3ccc4c(c3)CCC4)CC2)cc1 | i | 0.99 | / | / | 2 | 104 | /
CCN1CCN(CC(=O)N2N=C(c3ccc(OC)cc3)CC2c2ccc(OC)cc2)C(=O)C1=O (stereo unspecified) | i | 0.98 | 49 | 100 | -7 | 100 | /
CC1CCN(CCn2c(=S)[nH]c3ncccc3c2=O)CC1 | / | / | -3 | 117 | 8 | / | -0.3
COc1ccc(C2CC(=O)C(CS(=O)(=O)c3ccccc3)C(=O)C2)cc1 (stereo unspecified) | i | 0.98 | -18 | 73 | -7 | 136 | /
COc1cc(CCC(=O)OCC(=O)NC2CCCC(C)C2C)cc(OC)c1OC (stereo unspecified) | i | 1.1 | / | / | 7 | 105 | /
CCOC(=O)c1c(C)[nH]c(C(=O)OCC(=O)c2c(N)n(C)c(=O)n(C)c2=O)c1C | i | 0.8 | 35 | 89 | -2 | 98 | /
COCCN(C(=S)Nc1ccccc1C)C(C)c1ccco1 (stereo unspecified) | i | 0.84 | / | / | / | 104 | /
O=C(Nc1ccc(Br)cn1)c1coc(=O)c(Br)c1 | i | 0.92 | / | / | / | 97 | /
CCN=c1scc(-c2ccccc2)n1/N=C/c1ccccn1 | i | 0.81 | / | / | -9 | 114 | -0.9
CCN(CC)S(=O)(=O)c1cc(NC(=O)CCNC(=O)c2ccccc2Cl)ccc1C | i | 1 | -23 | 57 | -7 | 103 | -1.3
O=C(Cn1c(C(F)(F)F)nc2ccccc21)NCCCN1CCOCC1 | i | 0.76 | -14 | 179 | -11 | 111 | -1.0
COc1cccc2c(=O)c3cccc(N)c3[nH]c12 | i | 0.99 | -29 | 71 | -1 | 97 | -0.6
O=C(CN1C(=O)C2CCCCC2C1=O)OCc1nnc(-c2ccccc2)o1 (stereo unspecified) | i | 1.1 | 14 | 213 | 2 | 114 | /
O=C(Nc1ccccc1N1CCOCC1)C1CCN(S(=O)(=O)c2ccccc2F)CC1 | i | 1.1 | -30 | 62 | 0 | 100 | -0.5
Clc1ccc(SCc2cc(-c3ccccc3)on2)cc1 | i | 0.84 | 33 | 155 | -14 | 103 | -1.2
O=C(O)c1ccc(NCc2ccc(Br)cc2)cc1 | i | 1 | / | / | -1 | 96 | /
CC(=O)c1c(C(C)=O)c(C)n(C(c2ccccc2)c2ccccc2)c1C | i | 0.91 | / | / | 0 | 93 | /
Cc1ccccc1NC(=O)OCc1cccnc1Sc1ccc(Cl)cc1 | i | 1 | 0 | 86 | 3 | 98 | -3.4
Cc1cccc(C(=O)NCCCN2CCCC2=O)c1 | i | 0.93 | -17 | 117 | -2 | 101 | -4.8
CSc1nnc(-c2cc[n+](C)cc2)n1CCO | / | / | 25 | 81 | 5 | 57 | -0.4
CC(NC(=O)C1CCCN1S(=O)(=O)c1ccc2c(c1)n(C)c(=O)c(=O)n2C)c1ccccc1 (stereo unspecified) | i | 0.93 | / | / | / | 106 | /
CCOc1ccc(NC2=NCC(=O)N2Cc2cccs2)cc1 | i | 1.1 | 9 | 97 | 4 | 92 | -3.7
CCC(C)[C@H](NC(=O)OC(C)(C)C)c1nnc(SCc2c(C)[nH]c(=O)[nH]c2=O)o1 (stereo partly specified) | i | 1 | -34 | 101 | -7 | 100 | -0.3
O=c1cc(C(F)(F)F)[nH]c2ccc(OC(F)(F)F)cc12 | i | 0.98 | / | / | / | 96 | /
CC(C)CCOc1ccc(C(=O)N2CCCC2C(=O)O)cc1 (stereo unspecified) | i | 1.1 | / | / | -3 | 100 | /
COC(=O)C(C)Sc1nc2c(c(=O)[nH]c(=O)n2C)n1CCC(C)C (stereo unspecified) | i | 1 | 31 | 129 | -6 | 100 | 0.8
CC(C)N1CCN(Cc2ccccc2-c2ccco2)CC1CCO (stereo unspecified) | i | 0.97 | 39 | 129 | -5 | 106 | /
Cc1noc(C)c1CSCC(=O)OCc1nc2ccccc2c(=O)n1CC#N | i | 0.97 | / | / | -10 | 76 | -1.5
CC(C)n1c(C(O)c2ccc3c(c2)OCO3)nc2ccccc21 (stereo unspecified) | i | 0.82 | -21 | 65 | -9 | 107 | -1.4
COc1c2c(nc3occc13)C(CC=C(C)C)(OC)C(=O)C=C2 (stereo unspecified) | i | 0.92 | 7 | 132 | 2 | 99 | /
CC(C)C1N(C(=O)CN2CCCCC2)CCN1S(=O)(=O)c1ccccc1 (stereo unspecified) | i | 1.1 | / | / | 6 | 95 | /
CCOc1ccc(C(C)NC(=O)C2CCCC2)cc1 (stereo unspecified) | i | 0.91 | -8 | 81 | -1 | 93 | /
Cc1nc(S/C(=C\c2ccc(OCc3ccccc3Cl)cc2)C(=O)O)n[nH]1 | i | 0.92 | -7 | 73 | 9 | 92 | -0.7
CCn1c(-c2cccc(S(=O)(=O)N3CCCC3)c2)n[nH]c1=S | i | 0.82 | / | / | / | 99 | /
CCCOc1ccc(C(=O)NCc2ccco2)cc1 | i | 0.98 | -55 | 128 | -3 | 105 | -1.2
c1ccc(-c2nnc3ccc(N4CCCC4)nn23)cc1 | i | 0.9 | / | / | -6 | 96 | 0.8
Cc1ccccc1C(=O)Nc1ccc(S(=O)(=O)Nc2onc(C)c2C)cc1 | i | 1 | / | / | / | 101 | /
CC(C)(C)c1ccc(C(=O)NNC(=O)c2cccc(-n3cnnn3)c2)cc1 | i | 1 | / | / | / | 98 | /
N#CC1=C(N)SC(C(=O)c2ccccc2)C1c1cccs1 (stereo unspecified) | i | 1.2 | / | / | -5 | 104 | -2.8
CN1CCN(C(=O)c2ccccc2Nc2ccc(SC(F)F)cc2)CC1 | i | 1.1 | 41 | 100 | -7 | 103 | /
Cc1ccccc1-n1c(SC(C)C(=O)N2CCN(C)CC2)nc2ccccc2c1=O (stereo unspecified) | / | / | / | / | -9 | 140 | -0.9
Cn1c(SCC(=O)Nc2ccccc2[N+](=O)[O-])nnc1C(F)(F)F | i | 0.89 | 8 | 66 | -6 | 101 | /
COCCOC(=O)C1=C(C)NC(=O)N(C(C)=O)C1c1ccc(Cl)cc1 (stereo unspecified) | i | 0.99 | / | / | 2 | 95 | -2.0

(list continues)
SMILES | HSV augment | HSV augment primary fold | Insulin prom inh | Insulin prom inh cell count | PKD1 kinase inh | RGS16-Gao HTS | GALR2 ag
Cc1cccc(NC(=O)c2cc3ccccc3nc2C)c1 | i | 0.95 | / | / | -4 | 107 | /
CN(c1ccccc1C(=O)N1CCN(c2cccc(Cl)c2)CC1)S(C)(=O)=O | i | 0.89 | 67 | 107 | -7 | 102 | -1.7
CN(C)c1nc(OCCNC(=O)Nc2ccccc2)nc(N2CCCCC2)n1 | i | 0.97 | / | / | -5 | 107 | /
CCCC(=O)Nc1ccc(C(=O)O)cc1NC(=O)CCC | i | 0.92 | 0 | 103 | -9 | 104 | -1.6
O=C(CSc1nc2ccccc2c(=O)n1CC1CCCCC1)N1CCOCC1 | i | 0.87 | -24 | 106 | 4 | 95 | 0.0
CCN1CCN(c2ccc(NC(=O)c3ccc4c(c3)OCO4)cc2)CC1 | / | / | 31 | 153 | -1 | 95 | -1.5
CCOC(=O)C1(CCc2ccccc2)CCN(C(=O)CCn2cncn2)CC1 | i | 1 | / | / | 1 | 94 | /
O=C(Nc1nccs1)C1CCN(S(=O)(=O)c2ccc(Cl)c(C(F)(F)F)c2)CC1 | i | 1 | 48 | 69 | -1 | 102 | -2.1
COc1cccc(NC(=O)CNC(=O)c2ccc(F)cc2)c1 | i | 0.9 | / | / | -4 | 107 | -1.8
O=C(CCc1nnc(COc2ccccc2)o1)NCc1ccccc1C(F)(F)F | i | 0.91 | / | / | 1 | 101 | /
O=C(c1cccc(Cl)c1)N1CCN(Cc2c[nH]c3ccccc23)CC1 | i | 0.84 | -38 | 104 | -1 | 109 | /
CCNC(=O)CSc1nnc(-c2ccc(OC)cc2)n1CC(C)C | i | 0.96 | 9 | 45 | -8 | 103 | 0.6
CCN(Cc1ccccc1)S(=O)(=O)c1ccc(OC)c2ncccc12 | i | 0.98 | / | / | / | 100 | /
O=c1[nH]c(/C=C/c2ccc3c(c2)OCO3)c([N+](=O)[O-])c(=O)[nH]1 | i | 0.96 | -31 | 117 | -2 | 99 | /
O=C(Cn1cc2c(n1)CCCC2)NCc1cccc(Cl)c1 | i | 1.3 | / | / | 10 | 100 | -0.8

A draw from above in order of number of heavy atoms, rising.
SMILES | HSV augment | HSV augment primary fold | Insulin prom inh | Insulin prom inh cell count | PKD1 kinase inh | RGS16-Gao HTS | GALR2 ag
CCCC(=O)Nc1ccc(C(=O)O)cc1NC(=O)CCC | i | 0.92 | 0 | 103 | -9 | 104 | -1.6
CCNC(=O)CSc1nnc(-c2ccc(OC)cc2)n1CC(C)C | i | 0.96 | 9 | 45 | -8 | 103 | 0.6
CCN(Cc1ccccc1)S(=O)(=O)c1ccc(OC)c2ncccc12 | i | 0.98 | / | / | / | 100 | /
CCN1CCN(c2ccc(NC(=O)c3ccc4c(c3)OCO4)cc2)CC1 | / | / | 31 | 153 | -1 | 95 | -1.5
O=C(CSc1nc2ccccc2c(=O)n1CC1CCCCC1)N1CCOCC1 | i | 0.87 | -24 | 106 | 4 | 95 | 0.0
O=C(CCc1nnc(COc2ccccc2)o1)NCc1ccccc1C(F)(F)F | i | 0.91 | / | / | 1 | 101 | /

Further results follow:
SMILES | HSV augment | HSV augment primary fold | Insulin prom inh | Insulin prom inh cell count | PKD1 kinase inh | RGS16-Gao HTS | GALR2 ag
Cc1c(O)c(CN(C)C)cc2c1oc(=O)c1ccccc12 | i | 0.94 | / | / | / | 97 | /
CCN(c1ccccc1)S(=O)(=O)c1ccc(N)c(OC)c1 | / | / | -46 | 52 | -4 | 104 | -1.8
COc1ccc(Cl)cc1NC(=O)CN(C)CC(=O)Nc1ccccc1C(F)(F)F | i | 0.73 | 19 | 83 | -1 | 104 | /
Cc1cccc(-n2c(=O)cc(N3CCN(c4ccc(F)cc4)CC3)[nH]c2=O)c1 | i | 0.92 | / | / | 0 | 110 | 1.0
COCCn1nnnc1CN1CCSCC1 | i | 0.96 | / | / | -2 | 98 | /
CC(=O)OCc1nc2sc(C)c(C)c2c(=O)[nH]1 | i | 1 | 72 | 117 | -3 | 100 | -1.3
COc1ccc2c(c1)CCc1c(C(=O)NCc3ccc(F)cc3)noc1-2 | i | 0.92 | / | / | -9 | 102 | -1.6
